# From PubChem
# RE007 growth inh: less growth of the S. pombe RE007 Vpr strain; Potency, µM (doses to about 92.2 µM), inactives show at the top dose activity change, negative = less growth; actives 0.21% (n = 360,000); S. pombe RE007 Vpr strain, BacTiter-Glo ATP luminescence, 24 h; control for the full effect not named in the record; active = well fitted falling curve with a large enough effect; inconclusive = small, poorly fitted or top-dose-only effect; inactive = no such curve, though single readings can be large or run the other way;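 also: % is scaled to controls: 0 for no effect and ±100 for the full control effect; nearly all actives have a fitted effect of over 50% in size; the assay follows cell death caused by Vpr and the record does not say whether a fall means rescue or toxicity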
#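 Fission yeast RE007 carrying one integrated HIV-1 vpr copy, seeded at OD 0.01 in PMG+AL medium with 23 nL pinned compound. Grown 24 h at 30 degrees; viability read by BacTiter-Glo luminescence after 5 min.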
# Cruzain inh Det: cruzain (T. cruzi) inhibition with detergent. P25779. purified cruzain, Z-FR-AMC fluorescence, 0.01% Triton. Potency, µM, for the others: max response, negative = inhibition, hits mostly inhibitors. actives 0.43% (n = 200,000). AID 1478;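 also: plate controls were neutral wells for no effect and buffer without enzyme for full effect; nearly all actives have a fitted effect of over 40% in size; top concentration of the series not given in the record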
# Target sequence (P25779 123-467 limits assumed): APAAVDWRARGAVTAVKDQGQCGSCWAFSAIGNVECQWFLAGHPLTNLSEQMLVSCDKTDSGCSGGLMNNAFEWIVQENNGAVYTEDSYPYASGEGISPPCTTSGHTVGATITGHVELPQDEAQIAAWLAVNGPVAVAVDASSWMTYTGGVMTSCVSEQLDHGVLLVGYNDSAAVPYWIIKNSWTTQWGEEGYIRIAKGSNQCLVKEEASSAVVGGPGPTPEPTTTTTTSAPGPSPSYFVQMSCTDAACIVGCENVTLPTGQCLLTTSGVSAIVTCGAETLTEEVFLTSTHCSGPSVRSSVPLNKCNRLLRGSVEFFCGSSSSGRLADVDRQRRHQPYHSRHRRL
#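 Enzyme 1.5 nM, Z-FR-AMC 2 uM, NaOAc 100 mM pH 5.5, DTT 5 mM, Triton X-100 0.01%; 15 min RT compound preincubation; kinetic ex360/em450, 60 s delta.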
# SARS PLP yeast: SARS-CoV PLP inhibition in yeast. actives 0.19% (n = 330,000). S. cerevisiae expressing SARS-CoV PLpro, growth rescue; control for the full effect not named in the record. Potency, µM (top dose mostly 32.9 µM), without a hit: at the highest dose activity, positive = growth rescue; active means well fitted rising curve with a large enough effect; inconclusive means small, poorly fitted or top-dose-only effect; inactive means no such curve, though single readings can be large or run the other way; also: 0% is about no effect; nearly all actives have a fitted effect of over 55% in size; growth read by luminescence after 48 h
# NS1 inh: blocks influenza NS1 protein function; actives 0.4% (n = 270,000); Potency, µM (top dose mostly 46.1 µM), for the others: top-dose activity, positive = more growth; AID 2326; S. cerevisiae slowed by influenza A NS1, growth recovery by OD600; active means well fitted rising curve with a large enough effect; inconclusive means small, poorly fitted or top-dose-only effect; inactive means no such curve, though single readings can be large or run the other way; also: nearly all actives have a fitted effect of over 50% in size
#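 S. cerevisiae expressing influenza A NS1, grown in glucose, washed, then diluted 1:100 into pH 6.0 -URA galactose medium with 23 nl compound. Growth recovery read as OD600; NS1-free strain serves as control.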
# 2A StopGo: lowers the luciferase signal of an FMDV 2A StopGo reporter. human cells with a luciferase reporter of 2A StopGo recoding; control for the full effect not named in the record. AID 1159524. actives 1.2% (n = 410,000). Potency, µM (top dose mostly 57.9 µM), for inactives: at the top dose signal change, negative = less light; active = well fitted falling curve with a large enough effect; inconclusive = small, poorly fitted or top-dose-only effect; inactive = no such curve, though single readings can be large or run the other way; tested in HEK293T cells; also: % is scaled to controls: 0 for no effect and ±100 for the full control effect; nearly all actives have a fitted effect of over 45% in size; luciferase light after 4 h
# Marburg entry inh: Marburg virus entry inhibition; Marburg virus pseudotyped entry inhibition, cell reporter; control for the full effect not named in the record; about a third of the inactives were read at about 46 µM; Potency, µM (highest dose often 37.8 µM), for the others: at the highest dose activity change, negative = inhibition, hits mostly inhibitors; actives 1.8% (n = 300,000); AID 540276; active = well fitted inhibition curve with a large enough effect; inconclusive = small, poorly fitted or top-dose-only effect, or effect the other way; inactive = flat fitted curve, though single readings scatter; tested in HEK293 cells; about a fifth of its hits are not listed in these tables; also: % is scaled to controls: 0 for no effect and ±100 for the full control effect; luciferase read-out
# Lassa entry inh: Lassa virus entry inhibition | Lassa virus pseudotype entry inhibition, cell reporter; control for the full effect not named in the record | Potency, µM (highest dose often 37.9 µM), for the others: at the top dose activity change, negative = inhibition, actives largely listed as inhibitors | actives 1.2% (n = 300,000) | AID 540256; active means well fitted inhibition curve with a large enough effect; inconclusive means small, poorly fitted or top-dose-only effect, or effect the other way; inactive means flat fitted curve, though single readings scatter; tested in HEK293 cells; also: % is scaled to controls: 0 for no effect and ±100 for the full control effect; nearly all actives have a fitted effect of over 50% in size; luciferase read-out
# Cruzain inh noDet: cruzain (T. cruzi) inhibition without detergent; P25779; purified cruzain, Z-FR-AMC fluorescence, no detergent; Potency, µM, inactives show max response, negative = inhibition, most hits filed as inhibitors; actives 2.3% (n = 200,000); AID 1476;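 also: plate controls were enzyme without inhibitor for no effect and buffer without enzyme for full effect; nearly all actives have a fitted effect of over 40% in size; top concentration of the series not given in the record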
#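 Detergent-free condition (0.00005% Triton X-100) in acetate buffer pH 5.5 with DTT. 1.5 nM enzyme and compound were pre-mixed 15 min, then 2 uM Z-FR-AMC substrate added; reaction progress from fluorescence change between first and third reads (60 s).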
# An asterisk follows results filed as active; ? = inconclusive; . = not tested or not shown; & = joins results of further samples; [ ] = dose if it differs, or a comment. Unless noted, calls follow the shape of the dose curve; as a rule, active = well fitted curve in the direction sought with a large enough effect; inconclusive = small, poorly fitted or top-dose-only effect, or another doubt; inactive = no such curve, though single readings can be large; an effect the other way counts as inactive or inconclusive. Potency is read from the fitted curve at half-maximal effect.
SMILES,RE007 growth inh,Cruzain inh Det,SARS PLP yeast,NS1 inh,2A StopGo,Marburg entry inh,Lassa entry inh,Cruzain inh noDet
COC(=O)[C@@]1(Cc2ccc(F)cc2)[C@H]2c3cc(C(=O)N4CCCC4)n(Cc4ccc(S(C)(=O)=O)cc4)c3C[C@H]2CN1C(=O)c1ccccc1,-8.5%,-1.2%,.,.,-21.8%,.,.,?
S=C(N/N=C/c1ccco1)NC1CC2CCC1C2 (stereo not given),-13.1%,.,0.2%,5.5%,77.0%[activator],?,23.5%,.
CCOC(=O)Cn1c(=O)oc2cc(S(=O)(=O)NCCc3ccc(C)cc3)ccc21,-9.8%,-4.9%,6.5%,-9.9%,41.7%[activator],-2.7%,.,-1.3%
O=C1C2CCCN2C(c2ccc(Cl)cc2)N1c1ccccn1 (stereo not given),10.9%,6.8%,7.5%,-1.3%,1.0%,2.7%,11.7%,2.4%
O=C(NCCc1ccccc1)C1CCC(Cn2c(=O)c3ccccc3n(Cc3cccnc3)c2=O)CC1 (stereo not given),7.1%,0.3%,5.0%,7.0%,-18.4%,?,3.2%,29.4%
Cc1ccc(/C=N/NC(=O)c2cc(C)oc2C)o1,-1.8%,-5.4%,-4.2%,-9.6%,13.9%,10.6%,-1.3%,-12.5%
Cc1ccc(C(c2sc3nc(-c4ccco4)nn3c2O)N2CCCC2)cc1 (stereo not given),.,-2.7%,.,.,48.6%[activator],.,4.7%[46.1 µM],8.6%
COc1ccc(/C=N/NC(=O)CN(C)S(=O)(=O)c2ccc(NC(C)=O)cc2)cc1,-4.0%,.,-0.4%,-2.0%,3.2%,-0.9%[46.1 µM],-1.5%,.
CN1C(=O)C(c2nnc(Nc3cccc4ccccc34)s2)C2CC1(C)Oc1ccccc12 (stereo not given),-8.0%,-3.5%,11.5%,11.2µM*,-29.4%,?,?,?
CNc1ccc(-c2nc(-c3ccco3)no2)cc1[N+](=O)[O-],.,-3.8%,.,.,-19.9%,0.1%[46.1 µM],10.6%[46.1 µM],?
CC1CCCN(C(=O)CCNC(=O)Cn2cnc3ccccc3c2=O)C1 (stereo not given),8.7%,.,-1.3%,13.3%,-2.5%,?,21.3%[46.1 µM],.
CN(C(=S)Nc1ccc(F)cc1)C1(c2ccccc2Cl)CCCCC1=O (stereo not given),17.3%,-1.0%,-12.5%,2.0%,0.0%,?,0.8%,6.8%
COc1ccc(N2CCN(CCCNC(=O)c3nnc(Cc4ccccc4Cl)o3)CC2)cc1,.,-1.9%,.,.,0.0%,?,-17.4%[46.1 µM],13.2%
C=CCn1c(=NC(=O)c2cccc(N3C(=O)CCC3=O)c2)sc2cccc(OC)c21,-0.5%,.,2.9%,2.8%,-28.9%,-19.9%[46.1 µM],-25.3%,.
Cc1cc(NC(=O)CSCc2nc(-c3cccc(Cl)c3)oc2C)no1,4.0%,0.2%,-2.5%,-7.9%,-11.1%,-2.4%,15.3%,-2.4%
CC1CC(C)CN(C(=O)c2cccc3c2-c2ccccc2C3=O)C1 (stereo not given),15.5%,.,0.6%,-4.5%,29.4%,.,.,.
O=C(Nc1cccc2ccccc12)N1CCc2ccccc2C1,-26.9%,-3.4%,-17.4%,-11.8%,27.5%,-15.3%,24.3%,-1.5%
CCn1c(SC(C)C(=O)NCC2CCCO2)nc2scc(-c3ccccc3)c2c1=O (stereo not given),1.4%,.,-1.5%,.,-18.2%,?,10.6%,.
O=C(NC(=S)Nc1ccc(S(=O)(=O)N2CCCC2)cc1)C1CC1,-0.9%,.,0.7%,-6.7%,-1.7%,.,.,.
Cc1ccc(C(C(=O)NCc2ccccc2)N(C(=O)c2csnn2)C2CC2)cc1 (stereo not given),1.5%,.,4.9%,15.6%,15.5%,-21.7%[46.1 µM],-9.6%,.
Fc1ccc(-c2nc3c4c(-c5ccccc5)c(-c5ccccc5)oc4ncn3n2)cc1,.,-2.1%,.,.,8.0%,-3.7%[46.1 µM],-4.7%[46.1 µM],-19.9%
CN(C)C(CNC(=O)c1cccnc1Sc1ccccc1)c1ccco1 (stereo not given),-6.1%,-3.1%,1.5%,-6.6%,12.2%,-6.4%,-4.5%,-6.2%
CCN(CC)S(=O)(=O)c1ccc(C)c(NC(=S)N2CCN(C/C=C/c3ccccc3)CC2)c1,9.5%,.,-4.9%,-3.8%,?,.,.,.
CCC(C)NC(=O)Cn1c(=O)n(CCCCC(=O)NCc2ccco2)c(=O)c2ccccc21 (stereo not given),3.4%,1.7%,0.3%,-2.0%,-11.1%,-5.8%,-10.7%,0.3%
Cc1cc(=O)[nH]c(N/N=C/c2cccc([N+](=O)[O-])c2)n1,.,-7.5%,-3.7%,7.2%,.,-1.2%,5.7%,1.6%
# Next entries follow:
SMILES,RE007 growth inh,Cruzain inh Det,SARS PLP yeast,NS1 inh,2A StopGo,Marburg entry inh,Lassa entry inh,Cruzain inh noDet
CCN(CC)c1ccc(/C=C2/C(=O)ON=C2C)cc1,21.5%,4.9%,0.2%,-3.4%,21.0%,-8.8%,0.1%,-14.4%
CCOc1ccc(C2(C)NC(=O)N(CCN(C)C)C2=O)cc1 (stereo not given),0.8%,.,0.5%,-2.1%,-9.5%,12.8%[46.1 µM],7.0%[46.1 µM],.
COc1ccc(Cl)cc1NC(=O)c1cc(-c2ccco2)on1,-3.4%,.,0.2%,15.6%,0.6%,1.9%[46.1 µM],18.7%,.
C[C@]12CCC3C(CC[C@H]4[C@H](O)[C@H](O)CC[C@]34C)C1CCC2=O (stereo not given in full),-14.9%,.,.,.,1.1%,7.6%[46.1 µM],4.6%[46.1 µM],.
COc1ccc(CCN2CC(C(=O)NC3CCCCC3)CC2=O)cc1OC (stereo not given),-8.1%,.,5.2%,.,12.0%,-2.3%[46.1 µM],-1.2%[46.1 µM],.
COc1cc2c(C#N)c(N3CCCC3)nc(N)c2c(N)n1,-5.2%&13.3%,.,-4.7%,?,-7.0%&-18.2%,.,.,.
Cc1cc(C)n2nc(SCc3cc(=O)oc4ccc5ccccc5c34)nc2n1,17.7%,-10.6%,6.6%,-3.1%,-4.1%,-44.7%,-13.3%,?
CCc1nn(C(CC)C(=O)NCCc2ccc(OC)cc2OC)c(=O)c2cc3occc3n12 (stereo not given),-12.1%,.,0.6%,20.7%,5.3%,-16.0%[46.1 µM],-27.2%[46.1 µM],.
Cc1onc(-c2c(F)cccc2Cl)c1C(=O)N1C=CC(C(F)(F)F)=NCC1,2.1%,1.7%,9.1%,16.1%,-10.8%,-4.7%,-10.1%,2.2%
C/C(CCC1CC(C)(C)OC1=O)=N\NC(N)=S (stereo not given),-25.0%,.,27.4%,-4.0%,-2.5%,?,22.2%,.
CCONC(=NC)c1nonc1N,-17.6%,1.0%,-3.3%,1.9%,0.4%,2.8%[46.1 µM],-11.5%,-3.1%
CCOC(=O)C1CCCN(CCC(=O)Nc2ccc(Br)cc2)C1 (stereo not given),-13.7%,.,-0.9%,4.0%,-12.5%,-7.9%,-1.7%,.
CCOCCCn1c(=N)c(C(=O)NCc2ccc3c(c2)OCO3)cc2c(=O)n3ccccc3nc21,.,-2.8%,-24.9%,2.0%,.,.,.,-3.4%
Cc1ccccc1N=C1NC(=O)CC(c2ccccc2)S1 (stereo not given),23.9%,-4.2%,-48.6%,0.3%,?,-0.4%,-19.2%,3.7%
Cc1ccc(-c2c(C(=O)NCCc3ccccc3)oc(=O)c3ccccc23)cc1,.,-9.6%,.,.,-23.5%,0.1%[46.1 µM],22.2%[46.1 µM],5.7%
CCOc1cc(C2C(C#N)=C(N)Oc3c2c(=O)oc2ccccc32)ccc1OC(=O)c1cccs1 (stereo not given),-1.2%,-2.4%,2.6%,-11.6%,34.5%[activator],-15.9%,-15.3%,?
Cc1cccc(-c2csc(NC(=O)c3cnccn3)c2C(=O)OC(C)C)c1,3.4%,-1.4%,0.8%,2.6%,-6.8%,?,0.0%,?
COc1ccc(CC(=O)Nc2ccc3c(c2)CCC3)cc1OC,21.3%,-4.0%,11.5%,-9.5%,?,?,11.2µM*,5.4%
O=C(CCCCCn1c(=O)[nH]c2ccsc2c1=O)NCc1ccc2c(c1)OCO2,-19.3%,-3.2%,7.3%,-6.9%,1.0%,2.4%,9.5%,-8.1%
CC(C)NCCOCCOc1ccccc1F,5.5%,2.9%,4.7%,7.2%,-11.2%,0.0%,9.4%,-4.3%
N#Cc1c(N)c(C#N)c(-c2ccc3c(c2)OCO3)c2c1CCCC2,-2.2%,?,-2.8%,-3.4%,0.0%,-4.9%,-13.8%,-8.9%
CC1C(C#N)=C(SCC(N)=O)NC2=C1C(=O)CC(C)(C)C2 (stereo not given),-3.7%,.,-0.9%,.,-16.0%,?,-0.2%,.
CC(=O)Nc1ccc(NC(=O)c2cc(-c3cc(C)cc(C)c3O)n[nH]2)cc1,-3.7%,.,0.8%,?,-29.8%,.,.,.
CC(C)NC(=O)CC1OC(=O)c2ccccc21 (stereo not given),-21.9%,3.3%,10.5%,-0.6%,-6.3%,10.9%,0.7%,18.4%
Cn1cccc1C(=O)NCC(c1ccco1)N1CCCCC1 (stereo not given),-1.8%,.,2.7%,.,7.7%,7.1%[46.1 µM],8.3%,.
# (next part)
SMILES,RE007 growth inh,Cruzain inh Det,SARS PLP yeast,NS1 inh,2A StopGo,Marburg entry inh,Lassa entry inh,Cruzain inh noDet
CN1C(c2ccccc2)CC(=NO)CC1c1ccccc1 (stereo not given),-3.3%,.,-9.8%,-22.7%,-12.3%,.,.,.
O=C(CN1C(=O)NC(c2ccccc2)(c2ccccc2)C1=O)N1CCCCC1,-10.2%,.,-3.4%,.,-1.3%,?,17.0%,.
CCOC(=O)Cc1csc(NC(=O)c2sc3nc4ccc(C)cc4cc3c2N)n1,0.3%[3.69 µM],2.3%,-0.7%,4.0%,14.4%,6.9%,-0.4%,10.0%
Cc1ccc2cc(C#N)c(N3CCCN(C(=S)NCCCN(C)C)CC3)nc2c1,-21.6%,.,2.5%,2.2%,-14.6%,7.08µM*,?,.
Cc1ccc(-n2ncc(C(=O)N3CCN(c4ccccc4F)CC3)c2C2CCN(C(=O)OC(C)(C)C)CC2)cc1C,.,0.1%,.,.,-1.0%,.,?,-1.9%
C=CCNc1oc(/C=C/c2ccccc2)nc1C#N,-4.8%,31.6µM*,-8.7%,-16.2%,44.8%[activator],?,?,?
COC(=O)CSc1nc2nc(C)cc(C)n2n1,3.0%,2.2%,9.7%,?,4.0%,.,.,6.4%
O=C(Cn1nc(-c2cccc(Cl)c2)ccc1=O)Nc1ccccc1Br,-18.5%,.,0.3%,2.4%,-7.6%,?,-6.9%,.
CC(=O)NC12CC3CC(C1)CC(C(=O)N1CCN(S(=O)(=O)c4ccc(C(C)C)cc4)CC1)(C3)C2,-12.9%,.,-2.8%,.,-28.4%,7.7%,?,.

# No enrichment for hits (roughly 4.8% active in at least one column).
